NPYLR7 agonist: mosquito NPYLR7 agonism; HEK293T NPYLR7/Galpha15, GCaMP6s calcium fluorescence; activation, % at 10 µM; 270,000 compounds, 0.15% hits; in the data active means activation above about 40%;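 further: 0% = vehicle and 100% = reference agonist at the receptor; some compounds past the cut are filed as inactive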
NPYLR7 agonist max-min: further read-out of NPYLR7 agonist, marked with its call; activation, %; measured here: Max-Min RFU normalised activation; some inactives read as strong as hits;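 span of the calcium signal over five minutes; 0% = vehicle and 100% = native peptide agonist; compound fluorescence can raise it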
The depositor's hits bear a star. A portion of the library; rates above refer to the full screens.

SMILES	NPYLR7 agonist	NPYLR7 agonist max-min
O=C(NCC(=O)N1CCc2[nH]c3ccccc3c2C1)c1cccc(OC(F)F)c1	2	23
CCOc1ccc(-c2nc(CSc3nc(-c4ccc(OC)cc4)cc(=O)[nH]3)c(C)o2)cc1	-2	-4
Cc1csc2nc(O)c(C(=O)NCc3c(F)cccc3F)c(=O)n12	2	10
Cc1ccc(N=C2NC(=O)/C(=C/c3ccccc3)S2)cc1	-1	-4
CCOC(=O)Cn1c2ccccc2c2nc3ccccc3nc21	-1	-2
COC(CNC(=O)c1sc2nc(-c3ccccc3)cn2c1C)OC	5	1
COc1ccc2nc(CN3CCN(CC(=O)NC(C)C)CC3)[nH]c2c1	0	-3
O=c1c2ccc(F)cc2ncn1CC(O)COc1cc(Cl)ccc1Cl (stereo not given)	7	10
CN1CC2(CCCN(C(=O)c3cc(=O)n(-c4ccccc4)[nH]3)C2)OC1=O (stereo not given)	3	2
CCOC(=O)Cc1c(C)nc2ncnn2c1N1CCN(C(=O)Nc2ccc(OC)cc2OC)CC1	2	-1
CC1(c2ccccc2)NC(=O)N(CC(=O)Nc2ccccc2)C1=O (stereo not given)	0	-3
CCNC(=O)N1CCC(NS(=O)(=O)NCc2ccccc2)CC1	-3	-4
COc1ccc(COn2c(=O)c(-c3ccc(-c4ccccc4)cc3)[n+]([O-])c3ccccc32)cc1	-2	-5
Cc1ccc(CCC(=O)N2Cc3cnc(C(C)(C)C)nc3C2)cc1	1	1
Cc1cc(C(=O)NC(C)c2cnn(-c3ccccn3)c2C)nc(C)n1 (stereo not given)	5	1
O=C(c1scc2c1CCCC2)N1CCOc2ccc(CN3CCN(c4ncccn4)CC3)cc2C1	3	-1
CC(NC(=O)c1ccc(S(C)(=O)=O)cc1)C(C)(C)C (stereo not given)	15	6
N#Cc1cccc(CNC2CCC3(CC2)OCCO3)c1	12	5
Cc1cc2c(o1)CC(C)(C)CC2NC(=O)c1c(C)nn(C)c1Cl (stereo not given)	0	0
Nc1nc(Nc2ccccc2)nc(NCc2ccco2)c1[N+](=O)[O-]	3	3

Reprinted at random: 2 compounds from above, in no set order.
SMILES	NPYLR7 agonist	NPYLR7 agonist max-min
Cc1cc2c(o1)CC(C)(C)CC2NC(=O)c1c(C)nn(C)c1Cl (stereo not given)	0	0
O=C(c1scc2c1CCCC2)N1CCOc2ccc(CN3CCN(c4ncccn4)CC3)cc2C1	3	-1

The listing continues.
SMILES	NPYLR7 agonist	NPYLR7 agonist max-min
CSC(N)=NCCC[C@H](N)C(=O)O	5	-42
CCN(CC)S(=O)(=O)c1ccc(C(=O)Nc2c3c(nn2-c2cc(C)cc(C)c2)CSC3)cc1	1	6
O=C1c2ccccc2C(=O)N1CCCCN(C(=O)c1ccccc1[N+](=O)[O-])c1ccc(Cl)cc1	-1	-6
O=C(NCCNc1cnccn1)N1CCCC1	5	3
Cc1nc(Cl)cc(Sc2nnc(N3CCCC3)s2)n1	9	4
Cc1cc(CC(C)NC(=O)C2=NNC(=O)CC2)n[nH]1 (stereo not given)	4	0
O=C1c2ccccc2C(=O)c2cc(Br)ccc21	20	18
COCCN(CC(=O)Nc1cc(C(C)(C)C)nn1-c1ccc(C)cc1C)C(=O)NC12CC3CC(CC(C3)C1)C2	7	10
CNC(=O)Cn1cc(-c2cccc3ccnn23)cn1	5	3
C=CCOc1c(OC)ccc2c1CN(C1CCCC1)C(=O)CCN2C(=O)OCC	-2	3
COc1cccc(OCC(O)CN2CCC(CN3C(=O)c4cccc5cccc(c45)C3=O)CC2)c1 (stereo not given)	17	25
O=C(CCl)N1CCN(c2ccccc2F)CC1	-5	-11
Cc1noc(C)c1CNC(=O)[C@H](N)CC(C)C	16	10
COCc1cc(C)nc(OCC(=O)N/N=C\c2ccncc2)c1C#N	-6	-12
COc1ccc(C(=O)Nc2ccc3c(c2)CCC(=O)N3CCC(C)C)c(OC)c1	8	4
CC1CCc2c(sc(=O)n2CC(=O)Nc2cc(F)ccc2F)C1 (stereo not given)	4	1
COc1ccc(CC(=O)OCc2cc(-c3cc4ccccc4o3)on2)cc1	-4	-6
CCN(CC)S(=O)(=O)c1ccc(NC(C)CCc2ccccc2)nc1 (stereo not given)	4	2
COc1cccc(-c2ccc(CNC(=O)c3n[nH]c(=O)[nH]3)cc2)c1	3	0
CCC(NCc1c(C)noc1C)c1cccc(Cl)c1 (stereo not given)	10	4

Grouped by structure, the entries above containing fluorine
SMILES	NPYLR7 agonist	NPYLR7 agonist max-min
O=C(NCC(=O)N1CCc2[nH]c3ccccc3c2C1)c1cccc(OC(F)F)c1	2	23
Cc1csc2nc(O)c(C(=O)NCc3c(F)cccc3F)c(=O)n12	2	10
O=c1c2ccc(F)cc2ncn1CC(O)COc1cc(Cl)ccc1Cl (stereo not given)	7	10
O=C(CCl)N1CCN(c2ccccc2F)CC1	-5	-11
CC1CCc2c(sc(=O)n2CC(=O)Nc2cc(F)ccc2F)C1 (stereo not given)	4	1

Next records follow.
SMILES	NPYLR7 agonist	NPYLR7 agonist max-min
CC1CCN(c2onc(-c3ccccc3)c2CN(Cc2ccco2)C(=O)c2cccs2)CC1	4	5
O=C(c1cn[nH]n1)N1CCCC(c2nnc3ccccn23)C1 (stereo not given)	1	0
COc1coc(C(=O)NC(C)CCc2ccccc2)cc1=O (stereo not given)	11	5
COC(=O)C1=C(C)NC2=C(C(=O)CC(c3ccc(Cl)cc3)C2)C1c1ccccc1F (stereo not given)	-4	-10
Cc1ncc2c(c1CNC(=O)/C=C/c1ccccc1)CCN(C(=O)c1ccc3nccnc3c1)C2	-3	-8
Cn1cc(C(=O)NC2CCCCC2)c2[nH]c(=O)n(-c3ccccc3)c(=O)c21	21	18
Cc1ccc(C2CC(=O)c3cnn(-c4nc5ccccc5[nH]4)c3C2)cc1 (stereo not given)	26	16
CCC(=O)NCc1ccccc1-c1cc(F)c2c(c1)CC(CN)O2 (stereo not given)	3	2
C=CCN(CC#Cc1ccccc1)C(=O)c1cc(=O)n(C)c(=O)n1C	-7	-12
c1nc2c([nH]1)CCN(C[C@@H]1CCCN3CCCC[C@H]13)C21CCCCC1	1	-1
CCc1nc(C)c(C(=O)NCCc2ccc(-c3csc(C)n3)s2)s1	-2	-4
Cc1cccc(NC(=O)CNC(C)c2ccc(Cl)cc2)c1C (stereo not given)	-2	4
CCCN=C1CC(C)(C)C(C(=O)OC)C(O)=C1C(=O)CCC (stereo not given)	0	-2
COc1ccc(OC)c(C2CCCN2C(=O)CNC(=O)c2ccc(Cl)c(Cl)c2)c1 (stereo not given)	12	16
CCc1ccc(S(=O)(=O)N2CCC(CO)(Cc3ccc(OC)cc3)CC2)s1	7	12
Oc1[nH]c2c(Cl)cc(Cl)cc2c1N=Nc1nc2ccccc2o1	5	4
O=C(Nn1c(O)c(C=C2C=Nc3ccccc32)sc1=S)c1ccccc1[N+](=O)[O-]	12	13
CC1=C(C(=O)OC(C)C)C(c2c(O)ccc3ccccc23)NC(=O)N1C (stereo not given)	-6	-9
O=C1C(=Cc2ccc(F)cc2)CSc2ccc(F)cc21	0	-3
CC(NC(=O)c1ccc[nH]c1=O)c1ccc(Cl)c(Cl)c1 (stereo not given)	0	-1
Cc1ccsc1[C@@H]1CCN(Cc2cccc3c2OCO3)C[C@H]1O	7	4
CC(=O)c1ccc(OCc2cc(C(=O)N3CCCCC3CCO)no2)cc1 (stereo not given)	0	-4
CN1CCc2[nH]nc(C(=O)NCCc3nc4c(s3)CCCC4)c2C1	6	4
COc1ccc2nc(-c3ccc(OC)c(NC(=O)C4CCCC4)c3)cn2n1	-10	-15
COc1cccc(NC(=O)N(CC(=O)N(Cc2ccc(F)cc2)Cc2sccc2C)C2CC2)c1	16	23
O=S(=O)(NCc1ccncc1)c1ccc(F)cc1	0	-3
O=C(CCn1c(=S)[nH]c2ccccc2c1=O)N1CCOCC1	3	5
Cc1cccc(-n2nc(-c3ccccc3)c3c2N(CC(=O)NCc2cccnc2)C(=O)CSC3c2ccccc2Cl)c1C (stereo not given)	14	18
O=C(OCc1c(F)cccc1Cl)C1Cc2cc(Cl)ccc2O1 (stereo not given)	0	-1
c1nc(N2CCNCC2)c2sc3nc(N4CCOCC4)c4c(c3c2n1)CCCC4	9	3
O=C1COc2ccc(C(=O)Nc3ccc(N4CCCC4=O)cc3)cc2N1	3	8
O=c1ccc(-c2ccc(F)cc2)nn1CCNS(=O)(=O)c1ccc(F)cc1F	-3	-4
CCCc1c(C(=O)NCCO)nnn1-c1ccc(C)cc1	4	2
Cc1cc(Oc2ccc(Cl)cc2)nc(SCc2c(F)cccc2F)n1	10	15
COC(=O)c1ccoc1COC(=O)c1cccc2c1OC(C)C2C (stereo not given)	-4	-9
CCC(Nc1nc(COC)nc2c1cnn2C)c1ccnn1C (stereo not given)	7	5
O=C1OC(c2cccc(F)c2)=NC1=Cc1cccc(F)c1	1	5
Cc1cccc2c(N=Nc3ncc(Cl)cc3Cl)c(O)[nH]c12	1	0
Cn1c(=O)n(Cc2ccccc2)c(=O)c2c1nc(N1CCCC1)n2Cc1ccccc1	1	22
CNc1cccc(-c2ccc(O)cc2C)n1	2	1

Whole records, looked up by structure. Order of screens: NPYLR7 agonist	NPYLR7 agonist max-min
Results for O=c1ccc(-c2ccc(F)cc2)nn1CCNS(=O)(=O)c1ccc(F)cc1F = -3	-4
Results for CCC(Nc1nc(COC)nc2c1cnn2C)c1ccnn1C (stereo not given) = 7	5

4 entries from above, arranged by count of non-hydrogen atoms, low to high:
SMILES	NPYLR7 agonist	NPYLR7 agonist max-min
CCC(NCc1c(C)noc1C)c1cccc(Cl)c1 (stereo not given)	10	4
COC(=O)c1ccoc1COC(=O)c1cccc2c1OC(C)C2C (stereo not given)	-4	-9
O=C1COc2ccc(C(=O)Nc3ccc(N4CCCC4=O)cc3)cc2N1	3	8
CC(=O)c1ccc(OCc2cc(C(=O)N3CCCCC3CCO)no2)cc1 (stereo not given)	0	-4

Continuation:
SMILES	NPYLR7 agonist	NPYLR7 agonist max-min
COc1ccc(-n2cc(CN3CCSCC3)c(-c3cccc(F)c3)n2)cc1	13	5
COc1c2c(cc3c1C(CC(=O)c1c(O)c(OC)c4occc4c1OC)[N+](C)(C)CC3)OCO2 (stereo not given)	1	1
COc1ccc(S(=O)(=O)NCC2CCCO2)cc1N1CCN(S(=O)(=O)c2cccc([N+](=O)[O-])c2)CC1 (stereo not given)	-14	-10
CCOC(=O)c1[nH]c2ccccc2c1NC(=O)c1ccc(C)c(C)c1	0	10
O=C1c2[nH]nc(-c3ccccc3)c2C(c2cccc([N+](=O)[O-])c2)N1c1ccccc1 (stereo not given)	-11	-16
CC(C)Cc1nnc(NS(=O)(=O)c2ccc(Cl)cc2)s1	-5	-7
Cc1ccc(C)c(S(=O)(=O)NC(=O)c2c(C)noc2C(C)C)c1	-26	-27
CC(C)(C)S(=O)(=O)CCC#N	6	4
COc1cc(-c2ccc(C)s2)cc2c1OCCN(C1CCN(C)CC1)C2	-4	-5
CCc1nc(C(N)=O)c2[nH]c(=O)n(-c3ccc4c(c3)OCO4)c2n1	16	9
COCc1cc(Cn2cnc(-c3ccccc3)c2-c2cccnc2)[nH]n1	-1	-18
COc1cccc(COC2CCCN(C(=O)c3cccc(OC)c3)C2)c1 (stereo not given)	-5	-3
O=C(c1ccc(F)cc1F)N1CCC(CCc2ccc(-c3ccccc3)cc2)CC1	-1	2
COC(=O)c1ccccc1NC(=O)c1cc(-c2cccs2)n(C2CCS(=O)(=O)C2)n1 (stereo not given)	6	5
COc1cc(OC)c(OC)cc1C=CC(=O)Nc1ncc(C)s1	1	-3
COc1ccsc1S(=O)(=O)NCc1ccnc(-n2ccnc2)c1	6	3
CSc1ccc(C(=O)N2CCCC(CO)(CCCc3ccccc3)C2)cc1 (stereo not given)	5	4
O=C(NC1CC1)c1cc2n(n1)CCN(c1nccc(C(F)(F)F)n1)C2	4	-1
O=C(Cc1ccccc1)Nc1ccc(N2CCOCC2)cc1	2	6
O=C1CSc2cc(Cl)ccc2N1	6	2
COc1ccc2c(c1OC)C(=O)N1c3ccccc3COC21 (stereo not given)	4	2
CCCC12CN3CC(C)(CN(C1)C3c1cccs1)C2=O (stereo not given)	6	3
CN(C)c1ccc(-c2nc3cc(NC(=O)c4ccco4)ccc3o2)cc1	8	19
Cc1cc(=O)[nH]c2nnc(SCC(=O)N3CCCCCC3)n12	-3	4
COCCN(Cc1cccc2cccnc12)c1c(N)n(CC(C)C)c(=O)[nH]c1=O	-1	-3
CSc1nc(N2CCOCC2)c2cnn(CCNC(=O)c3ccccc3F)c2n1	6	5
CC(C)Oc1ccc(CN2CCC2(C)C(=O)NCc2ccc(C(F)(F)F)cc2)cc1 (stereo not given)	3	-3
O=C1c2ccccc2C2=Nc3ccccc3OC12O (stereo not given)	17	10
C/C=C(\C)C(=O)OC1C[C@@]2(COC(C)=O)O[C@H]2/C=C\[C@@]2(C)O[C@@H]2[C@H]2OC(=O)C(COC(C)=O)=C12 (stereo not given in full)	-6	-12
CCN(CC)C(=O)c1cc(NS(=O)(=O)c2ccc3[nH]c(=O)cc(C)c3c2)c(OC)c(OC)c1	5	-1
CC(C)N1CCNC(=O)C1CC(=O)N(Cc1ccco1)Cc1cccs1 (stereo not given)	7	3
Cc1cccc(-c2cc(N)n(-c3ccc(C(=O)NCCC(c4ccccc4)c4ccccc4)cc3)n2)c1	-4	-11
C=CCn1c2ccccc2n2nc(C)nc12	5	5
CCCCOc1ccc(C(=O)Nc2ccc(C3SCC(=O)N3c3ccc4c(c3)CCC4)cc2)cc1 (stereo not given)	19	27
CC(=O)Nc1cccc(C(=O)N2CCOC(COCc3cccc(C)c3)C2)c1 (stereo not given)	25	32
COc1ccc(/C=C2\C(=O)NC(=S)N(Cc3ccccc3)C2=O)cc1Br	-10	-3
Cc1noc(NS(=O)(=O)c2ccc(NC(=O)C34CCC(CC3)C4)cc2)c1C	0	-1
C=Cn1cc(CN2CCN3CCNC(=O)C3C2)cn1 (stereo not given)	5	3

Bioassay records: PubChem, Fisher Drug Discovery Resource Center
